# RN4220 kill: kills Staphylococcus aureus RN4220. 330,000 tested, 0.33% active. S. aureus RN4220 growth, OD600, 16 h. inhibition, % (no concentration beside the values);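 active means z-score of -3 or lower and OD600 up to 0.18 on both plates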;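 further: plate controls were untreated cells for no effect and reference antibiotic for full effect; stock transfer was 100 nL into about 80 µL; one replicate is shown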
# PrP UTR inh: suppresses PrP 5' UTR mRNA reporter expression. 340,000 tested, 0.35% active. inhibition, % (no concentration beside the values). AID 488862. cell-based PrP 5' UTR mRNA reporter, plate reader;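 active means every replicate at 50% or more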;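 further: 0 = median of the neutral control wells; tested in H4 reporter cells; numbers are from one replicate; inactives centre near -14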
# Sa ugtP lethal: kills S. aureus RN4220 lacking UgtP. S. aureus RN4220 ugtP deletion, OD600 growth, 16 h; some inactives read as strong as hits. growth inhibition, % (no concentration beside the values). 330,000 tested, 0.54% active;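 active means z-score under -3 and OD600 up to 0.15 on both plates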;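 further: plate controls were untreated wells for no effect and antibiotic for full effect; wells of about 80 µL received 100 nL stock; the first replicate is given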
# BJeLR viability: kills HRASV12-expressing BJeLR cells; BJeLR (HRASV12) viability, CellTiter-Glo ATP luminescence, 48 h; reference of the scale not given here; inhibition, % (test concentration not listed); 300,000 tested, 0.17% active;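 active means replicate mean above 50%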;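 further: 50 nL library stock added to about 25 µL; numbers are from one replicate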
# Mtb hypoxia rep: inhibitors of hypoxia-regulated fluorescent reporter in Mycobacterium tuberculosis. M. tuberculosis hypoxia-regulated fluorescent reporter, fluorescence. fluorescence inhibition, % (no concentration beside the values). 300,000 tested, 0.1% active. AID 1159583;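 active means 35 to 45% if threefold the growth effect, above 45% if 1.5-fold the growth effect; inactive means the rest, general growth blockers included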;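 further: wells of about 50 µL received 100 nL stock; 0% = vehicle wells and 100% = reference inhibitor wells; whole bacteria with a GFP reporter of the hypoxia response; strong numbers were not always called active; many hits fall short of the cut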
# Bead autofluor: compound fluorescence in toxin protease inhibitor counterscreen. compound autofluorescence counterscreen, microsphere flow cytometry; stronger effect = higher value. fluorescence intensity (test concentration not listed). 360,000 tested, 3.1% active. AID 624483;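 active means at least 3 SD above the mean of all compounds, about 16000 in these data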;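 further: 100 nL of 1 mM stock went into each well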
# Mtb hypoxia rep growth: also measured in Mtb hypoxia rep; calls as there; growth inhibition, %; measured here: M. tuberculosis growth (absorbance);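 0% = vehicle and 100% = reference antibiotic; read after six days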
# Starred values were filed as active, the others as inactive; / = not tested or not shown.
SMILES,RN4220 kill,PrP UTR inh,Sa ugtP lethal,BJeLR viability,Mtb hypoxia rep,Mtb hypoxia rep growth,Bead autofluor
CC(=O)N/N=C(\C)C1COc2ccccc2O1 (configuration not stated),/,-14,/,-8,/,/,3134
Cn1c(-c2ccncc2)nc2ccccc21,5.6,-21,15,1,3,5,3819
CN(CC(=O)Nc1ccccc1Br)C(=O)CNC(=O)c1ccc(Oc2ccccc2)cc1,1.5,-9,4,1,-7,-10,4351
Cn1c(=O)c([N+](=O)[O-])c(-n2ccnc2)c2ccccc21,-1.0,-39,3,7,21,21,4782
COCCn1c(=NC(=O)c2ccccc2[N+](=O)[O-])sc2cc(S(C)(=O)=O)ccc21,-0.9,-13,12,-1,4,4,1986
CCn1c(SCC(=O)NCc2ccc3c(c2)OCO3)nc2c(c1=O)SCC2,0.1,-2,1,-7,-3,3,6391
N#Cc1ccc(/C=N/NC(=O)CCc2ccc(S(=O)(=O)N3CCOCC3)cc2)cc1,/,-3,/,-19,/,/,2090
CC(C)c1ccc(C=NNC(=O)c2ccccc2Cl)cc1,0.5,/,24,/,9,-4,/
CSc1ccccc1NC(=O)C1C2CCC(C2)C1C(=O)O (configuration not stated),2.9,-7,3,6,8,4,4772
ClCc1csc(-c2ccc(Cl)cc2)n1,12,11,23,1,6,11,10648
CCCc1cc2c(=O)c(-c3ccc4c(c3)OCCO4)c(C)oc2cc1OS(C)(=O)=O,2.5,-35,56,-2,8,5,12039
CN(CCOc1ccccc1)C(=O)C1CCC(=O)N(CCN2CCOCC2)C1 (configuration not stated),0.5,-2,6,4,6,-22,4456
Cc1ccc(N(C(=O)CNC(=O)c2ccco2)C(C(=O)NC2CCCCC2)c2cccnc2)cc1C (configuration not stated),4.1,-5,1,5,4,2,5684
Cc1ccc(N2CC(C(=O)Nc3ccc(C)c(S(=O)(=O)N(C)C)c3)CC2=O)cc1 (configuration not stated),0.7,34,1,0,-5,3,4555
CCOC(=O)Cn1nc(C)c(NC(=O)COc2ccccc2[N+](=O)[O-])c1C,8.7,-13,-64,2,10,9,3755
CC1CC(C)CN(C(=O)COC(=O)CNS(=O)(=O)/C=C/c2ccccc2)C1 (configuration not stated),-0.8,-5,-5,-4,0,6,4126
c1ccc(Cn2nnnc2C(c2ccccn2)N2CCOCC2)cc1 (configuration not stated),4.2,-25,3,12,8,0,6802
C#C[C@@]1(O)CCC2C3CCC4=C/C(=N/OCC(=O)NC(CCC(N)=O)C(=O)O)CC[C@]4(C)C3CC[C@@]21C (some centres not stated),/,-18,/,2,/,/,3763
CN(C)S(=O)(=O)c1cccc2c1C(=O)c1ccccc1C2=O,22,-3,2,-4,17,1,2670
Cc1ccc2c(c1)N(C(C)C(=O)NCc1cccs1)C(=O)CO2 (configuration not stated),8.5,-18,3,-2,16,5,5654

# Gathered by group, the compounds so far with a halogen.
SMILES,RN4220 kill,PrP UTR inh,Sa ugtP lethal,BJeLR viability,Mtb hypoxia rep,Mtb hypoxia rep growth,Bead autofluor
CN(CC(=O)Nc1ccccc1Br)C(=O)CNC(=O)c1ccc(Oc2ccccc2)cc1,1.5,-9,4,1,-7,-10,4351
CC(C)c1ccc(C=NNC(=O)c2ccccc2Cl)cc1,0.5,/,24,/,9,-4,/
ClCc1csc(-c2ccc(Cl)cc2)n1,12,11,23,1,6,11,10648

# (next part)
SMILES,RN4220 kill,PrP UTR inh,Sa ugtP lethal,BJeLR viability,Mtb hypoxia rep,Mtb hypoxia rep growth,Bead autofluor
Cc1c(C=Nc2ccc(S(=O)(=O)CCO)cc2)c(O)[nH]c(=O)c1C#N,-2.3,-21,-2,-8,-3,0,4446
O=C(CCN1CCCCC1)Nc1cccc(Br)c1,4.3,-15,8,-2,24,10,3244
CCOC(=O)C1(Cc2ccccc2)CCN(Cc2cnc(N3CCOCC3)s2)CC1,5.2,-25,6,10,8,6,4622
Clc1ccc(Oc2nnnn2-c2ccccc2)cc1,2.8,-13,-4,-4,4,7,4629
CCOC(=O)C(=N/O)/C(C)=N/NC(=O)C(=O)Nc1ccc(Cl)cc1,/,-50,/,3,/,/,3484
Cc1cc(C(=O)COC(=O)COc2ccc(C#N)cc2)c(C)n1C1CC1,1.7,6,5,-2,6,0,7577
CCCC(=O)N1c2ccc(-c3csc(N)n3)cc2CC1C (configuration not stated),12,-61,13,3,/,/,3547
COc1cc(OC)cc(C(=O)N[C@H](C(=O)OCC(=O)N2CCN(S(=O)(=O)c3ccc(C)cc3)CC2)C(C)C)c1,-2.4,-14,-1,/,12,16,3410
Cc1ccc(C2C(C(=O)c3cc4ccccc4o3)=C(O)C(=O)N2CCN(C)C)o1 (configuration not stated),2.4,-16,-1,/,12,6,3478
Cc1nc(N2CCOCC2)nc2c1CCCC2,3.9,-11,5,-4,/,/,2065
Cc1cc(C)c(C(=O)/C=C/c2ccco2)c(=O)[nH]1,3.7,-6,-1,0,0,5,5000
O=C(CSc1nnc(-c2cccs2)n1Cc1ccco1)c1ccc2c(c1)OCO2,3.3,-19,-16,0,7,13,2579
Cc1ccc(CSc2nc3ccncc3[nH]2)cc1,12,13,6,24,-1,8,5911
CC#CCCCC(=O)Nc1ccccc1C(=O)O,0.9,-34,-3,1,23,16,10213
O=C(N/N=C/C(Br)=C/c1ccccc1)NC1CCCCC1,/,-28,/,1,/,/,3790
Cc1cc(C)cc(OCC(=O)NCc2nc(-c3ccccc3)no2)c1,-4.4,-21,-12,-3,-3,8,8325
Cc1cc(C(=O)COC(=O)c2cc(Cl)c(O)c(Cl)c2)c(C)n1C,-14,-18,-11,/,9,4,/
Cn1c(-c2ccccc2)cc2ccccc21,3.0,9,11,2,10,2,3854
CCOC(=O)c1cccc(-n2c(C)nc3ccccc3c2=O)c1,-1.9,-8,4,-9,/,/,3419
CC(=NO)c1ccc(Cl)cc1Cl,5.7,/,4,/,-1,10,/

# Among those listed so far, these contain a Cl atom.
SMILES,RN4220 kill,PrP UTR inh,Sa ugtP lethal,BJeLR viability,Mtb hypoxia rep,Mtb hypoxia rep growth,Bead autofluor
CC(C)c1ccc(C=NNC(=O)c2ccccc2Cl)cc1,0.5,/,24,/,9,-4,/
ClCc1csc(-c2ccc(Cl)cc2)n1,12,11,23,1,6,11,10648
Clc1ccc(Oc2nnnn2-c2ccccc2)cc1,2.8,-13,-4,-4,4,7,4629
CCOC(=O)C(=N/O)/C(C)=N/NC(=O)C(=O)Nc1ccc(Cl)cc1,/,-50,/,3,/,/,3484
Cc1cc(C(=O)COC(=O)c2cc(Cl)c(O)c(Cl)c2)c(C)n1C,-14,-18,-11,/,9,4,/
CC(=NO)c1ccc(Cl)cc1Cl,5.7,/,4,/,-1,10,/

# Other results.
SMILES,RN4220 kill,PrP UTR inh,Sa ugtP lethal,BJeLR viability,Mtb hypoxia rep,Mtb hypoxia rep growth,Bead autofluor
Cc1ccc2nc(NCc3ccco3)c(C=NCc3ccco3)c(=O)n2c1,0.7,-54,-2,-16,1,-3,7173
CCOC(=O)C1=c2sc(=Cc3cccnc3)c(=O)n2C(N)=C(C(=O)OC)C1c1cccnc1 (configuration not stated),-3.3,/,-5,/,-3,5,/
Cc1cc(C(F)(F)F)n(-c2nc(C(=O)Nc3cccnc3)cs2)n1,15,-2,7,0,4,10,4400
CCn1c(O)c(N=NC(=O)Cn2ccc(C(F)(F)F)n2)c2ccccc21,6.7,-15,0,-2,11,6,1976
COC(C(=O)Nc1ccc(Br)cc1F)c1ccccc1 (configuration not stated),-0.3,-18,9,4,4,-2,4425
COC(=O)c1sccc1NC(=O)Nc1ccc(F)cc1,3.5,-16,0,0,0,3,5388
COC(=O)[C@@H]1CCCN1Cc1nc(Cc2ccc(OC)c(OC)c2)no1,6.9,-23,3,8,3,4,4268
O=c1ccc2cc3c(-c4ccccc4)coc3cc2o1,14,-3,10,-1,11,4,3005
CC(=O)Nc1cc(S(=O)(=O)Nc2cccc(C)c2)c(C)cc1C,6.3,-8,0,6,/,/,4759
CSc1nnc(Cc2cc(=O)[nH]c(=O)[nH]2)n1-c1cc(C)ccc1C,2.0,-16,-4,-3,16,7,3805
CN(C)c1ccc(/C=N/NC(=O)CCc2nc3ccccc3[nH]2)cc1,/,-16,/,-2,/,/,4401
COC(=O)c1ccc(CN(C(=O)N2CCN(C)CC2)S(=O)(=O)c2ccc(C)cc2)cc1,1.8,10,5,0,7,-1,4415
O=C(Nc1cc(C(F)(F)F)cc(C(F)(F)F)c1)Nc1cnn(-c2ccc([N+](=O)[O-])cc2)c1C(F)(F)F,49,-16,6,14,4,13,/
O=C(Nc1ccc(Cc2ccc(NC(=O)C3CC3)cc2)cc1)C1CC1,1.4,-13,1,2,8,18,4073
CSc1n[nH]c(/N=C/c2oc(O)c3ccccc23)n1,/,-17,/,-2,/,/,3043
COc1cc(C(=O)NCC(=O)NNC(=O)CN(C)S(=O)(=O)c2ccc(Cl)cc2)cc(OC)c1OC,-0.2,-8,4,/,2,0,/
CCOc1ccc(C(=O)CCC(=O)Nc2ccncc2)cc1,-1.4,-28,4,/,6,3,3720
CC1Cc2cc(S(=O)(=O)N3CCN(c4ccccc4F)CC3)ccc2N1C(=O)C1CC1 (configuration not stated),1.6,-9,4,-7,-1,-4,5879
COc1cc(N=Nc2cccc(S(N)(=O)=O)c2)c2ccccc2c1N,4.0,-32,-27,6,4,8,3691
Cc1cc(C)nc(N2CCC(C(=O)NCc3cccs3)CC2)n1,4.0,-23,14,-15,7,5,23240*
O=C(c1cc(S(=O)(=O)N2CCOCC2)c(Cl)cc1Cl)N1CCCCC1,3.6,1,3,3,1,-8,5552
CCc1nn(C(C)C(=O)NCCc2ccc(OC)c(OC)c2)c(=O)c2cc3occc3n12 (configuration not stated),2.1,-5,-5,1,4,12,3036
CCCCn1c(C)cc(/C=C(\C#N)C(=O)O)c1C,0.0,-20,5,-1,14,1,2159
CC(C)COc1cccc(C(=O)NC(=S)Nc2cccc(NC(=O)c3ccccc3Cl)c2)c1,3.0,-5,-3,1,13,3,2070
COc1ccc(C=NNc2nc(C)cc(=O)[nH]2)cc1OC,3.7,/,6,/,1,-4,/
CCOC(=O)C1(c2nc(N)cs2)COC(=O)C1 (configuration not stated),3.8,-16,1,-2,9,6,5414
CCCCOc1ccc(NC(=O)C(=O)NCCCn2ccnc2)cc1,7.1,-20,3,6,9,12,1985
COc1ccc(C(=O)Nc2nc(-c3ccccn3)cs2)cc1S(=O)(=O)N1CCOCC1,2.8,35,-9,/,1,0,6194
COC(=O)c1ccc(NC(=O)CN2CCN(c3cccc(Cl)c3)CC2)cc1,-13,7,-8,0,4,4,2267
Cc1ccccc1N(C(=O)CNC(=O)c1ccco1)C(C(=O)NC1CCCCC1)c1ccncc1 (configuration not stated),5.4,-24,6,-1,5,2,3088
CC1CC1c1ccc(/C=C(\C#N)C(=O)Nc2ccccc2Cl)o1 (configuration not stated),-1.0,-49,10,7,1,7,2185
COc1ccccc1NS(=O)(=O)c1ccc(NC(=O)N2CCCCC2)cc1,5.7,-14,3,7,1,-2,6714
CCCOC(=O)c1ccc(Cl)c(NC(=O)c2cccnc2)c1,0.6,/,-1,2,3,8,/
Cc1ccc(N2C(=O)CS(=O)(=O)CC2=O)cc1,3.2,-14,-4,-3,3,8,4517

# Bioassay records: PubChem BioAssay, several laboratories
